# KLF5 inh: suppresses KLF5 promoter-driven expression; DLD-1 KLF5 promoter-luciferase reporter, luminescence; inhibition, % at 5 µM; hit rate 0.23% among 290,000; AID 1700;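 active = inhibition above a per-plate limit of that plate's mean compound inhibition plus 3 SD, cut at about 60% in these data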;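 also: 0% = DMSO wells and 100% = LY294002 at 200 µM; higher means less KLF5 promoter-driven luciferase light; inactives centre near -14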
# HSF1 inh: HSF1 inhibition; NIH3T3-HGL HSE-luciferase, MG132-induced, luminescence 8 h; active compounds read low; activity change, negative = inhibition, % at 7.5 µM (by protocol); hit rate 0.77% among 300,000;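 active = more than half of replicate wells show activity change below -50%, luminescence cut by over half; inconclusive = some wells, but at most half, below -50%; inactive = no replicate well below -50%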;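 also: luciferase reports HSF-1 transcriptional activity via heat shock element; 0% = median of DMSO wells and -100% = zero luminescence signal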
# HDAC3 inhib: inhibitors of human histone deacetylase 3. O15379. recombinant HDAC3, fluorogenic peptide/trypsin coupled, fluorescence. inhibition, % at 8.3 µM. hit rate 0.15% among 320,000. AID 2718; in the data active = inhibition above about 26%, passing the limit was not always enough; inconclusive = no clear call, values can overlap the other calls
# Target sequence (O15379 whole entry, looked up): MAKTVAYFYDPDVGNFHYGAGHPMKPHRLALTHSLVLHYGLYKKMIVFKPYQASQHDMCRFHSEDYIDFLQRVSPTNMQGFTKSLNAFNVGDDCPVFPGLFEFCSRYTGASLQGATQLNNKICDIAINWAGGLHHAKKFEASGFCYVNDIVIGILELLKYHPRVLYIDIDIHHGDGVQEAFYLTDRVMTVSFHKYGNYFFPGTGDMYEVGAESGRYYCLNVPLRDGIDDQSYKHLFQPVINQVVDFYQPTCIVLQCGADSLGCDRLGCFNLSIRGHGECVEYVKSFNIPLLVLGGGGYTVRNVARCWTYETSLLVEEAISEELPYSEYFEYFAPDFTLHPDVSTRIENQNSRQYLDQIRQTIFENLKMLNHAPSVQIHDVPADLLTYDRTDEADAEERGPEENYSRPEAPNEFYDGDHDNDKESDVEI
# Platelet DG rel: modulates dense granule release in human platelets | inhibition, %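 (compounds screened at 7.5 µM in platelet-rich plasma)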 | hit rate 0.22% among 300,000 | AID 1663 | human platelet-rich plasma, SFLLRN dense granule ATP release, luminescence;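 active = mean replicate score, as percent of positive control, at or above 50; inconclusive = mean below 50 but at least one replicate at or above 50; inactive = mean and every replicate below 50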
# HSF1 activator: increases HSF-1 driven luciferase reporter signal; NIH3T3-HGL HSF-1 luciferase reporter, MG132, 8 h; 100% = twice DMSO control signal; activation, % at 9 µM; hit rate 1.7% among 300,000; AID 504408;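 active = mean replicate activation of at least 50% with a set share of replicates each reaching 50%; inconclusive = only one of those two conditions met; inactive = mean below 50% and too few replicates reaching it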;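 also: 0% = median of the neutral control wells and 100% = twice that signal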
# AI-2 QS mod: modulators of Vibrio harveyi AI-2 quorum sensing system; activity change, % at 7.5 µM; AID 2094; Vibrio harveyi JMH597 AI-2 luminescence/OD600 ratio, 9 h; active compounds read low; strain lacks LuxN and CqsS sensors; 0 = neutral-control median; hit rate 0.4% among 300,000; in the data active = activity change below about -75%, passing the limit was not always enough; inconclusive = no clear call, values can overlap the other calls;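 also: luminescence divided by OD600 gain over 9 h not by final OD600 alone; inactives centre near 13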
# IEC-6 tox: kills IEC-6 intestinal cells in KLF5 counter-screen; IEC-6 cytotoxicity, luminescence viability; inhibition, % at 5 µM; hit rate 0.78% among 290,000; in the data active = inhibition above about 22%;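 also: 0% = plate median of test compound wells and 100% = cytotoxic reference compound wells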
# HSP90 inh: blocks HSP90-mediated luciferase refolding in reticulocyte lysate; Rabbit reticulocyte lysate, luciferase refolding luminescence, 3 h; inhibition, % at 5.6 µM; hit rate 0.91% among 290,000; AID 1789;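 active = inhibition above the screen-wide mean plus 3 SD, computed separately per campaign, cut at about 16% in these data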;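 also: 0% = DMSO wells and 100% = 60 µM geldanamycin wells; inhibitors lower the luminescence because luciferase stays unfolded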
# aSyn UTR inh: MLPCN primary screen, SNCA 5' untranslated region | alpha-synuclein 5'UTR reporter, inhibitor activity | inhibition, % (tested at 7.5 µM) | hit rate 0.82% among 300,000 | AID 1813; in the data active = inhibition above about 60%; inconclusive = no clear call, values can overlap the other calls;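 also: H4 neuroglioblastoma cells stably carrying SNCA 5'UTR luciferase fusion; 0% = DMSO wells and 100% = positive control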
# * = called active by the depositor; ? = inconclusive; nt = not tested or not shown; & = joins results of further samples.
smiles	KLF5 inh	HSF1 inh	HDAC3 inhib	Platelet DG rel	HSF1 activator	AI-2 QS mod	IEC-6 tox	HSP90 inh	aSyn UTR inh
C#CCSc1n[nH]c(-c2ccco2)n1	-36.0	-8.9	3.0	1.7	11.3	2.5	1.0	2.2	4.4
COC(=O)C1C(=O)NCC1c1ccccc1 (centres undefined)	-27.4	-4.5	-3.5	-1.8	6.1	37.2	0.6	0.2	-10.2
Cc1c(-c2cccs2)[n+](=O)c2c(n1[O-])CCCC2	5.3	2.6	-5.8	-2.9	0.9	10.6	-2.0	1.0	26.5
CCN(CC)CC#CCOC(=O)C(O)(c1ccccc1)C1CCCCC1 (centres undefined)	-17.1	20.5	-1.2	1.5	48.3	10.2	-5.9	2.1	-2.5
O=C(O)CCC(=O)Nc1ccc(S(=O)(=O)Nc2nccs2)cc1	0.2	-2.0	-3.6	-0.5	-3.5	31.4	-1.0	2.8	-3.1
COc1ccc(C(CC(=O)O)NC(=O)OC(C)(C)C)cc1 (centres undefined)	-9.3	-7.0	7.7	-3.3	-11.4	9.6	2.2	2.1	-4.7
Cc1ccc(Nc2nnc(-c3ccc4c(c3)OCO4)o2)c(C)c1	-65.9	6.9	1.3	-1.9	40.2	1.6	1.1	-2.2	-93.2
N/C(CC(=O)Nc1cc(C(F)(F)F)ccc1Cl)=N\O	-16.1	-0.4	6.2	5.9	13.4	-1.5	-2.2	4.3	10.3
CC1(C(=O)CSc2ncn[nH]2)CCC(=O)O1 (centres undefined)	-12.4	nt	13.2	-5.5	nt	13.9	0.8	0.0	6.2
O=C(CC(c1ccc(F)cc1)c1ccco1)N1CCCC1 (centres undefined)	-26.8	-2.2	1.9	-0.3	-4.4	4.7	-3.7	3.0	-11.1
O=C1NC(=O)C(c2ccccc2)(c2ccccc2)N1	-18.1&-22.9&5.5	11.1&5.0	2.4&2.5	-1.5&-1.1	-2.7&5.3	30.7&21.4	7.6&3.0&4.8	-0.1&-0.2&1.1	-12.8&5.2
Nc1ccn([C@H]2CC[C@@H](CO)O2)c(=O)n1	-12.5&-17.7	-3.5	-0.8	0.1	1.5	36.3	3.4&-5.9	-2.1&-2.0	10.4
CN(C)c1ccc(C=NCCC2(O)CCOC(C)(C)C2)cc1 (centres undefined)	-8.7	-2.9	2.2	0.0	4.2	1.7	5.2	4.1	-7.9
O=C(O)c1cc2cc(F)ccc2[nH]1	-34.3	-64.3*	-7.5	-1.1	-72.2	11.1	-2.7	-3.7	-12.6
O=C(/C=C/c1ccccc1)c1ccccc1	2.6	13.7	2.3	12.5	19.4	5.6	-3.1	2.5	-104.9
COc1ccc(C2/C(=C(\O)c3ccc4c(c3)OCCO4)C(=O)C(=O)N2CCCN(C)C)cc1 (centres undefined)	16.0	-4.3	6.0	9.2	1.5	7.0	4.3	-0.4	-17.4
CCOC(=O)c1[nH]c2ccccc2c1N=CN(CC)CC	-8.2	-8.3	2.6	-1.8	-1.2	0.1	6.9	0.2	23.7
Cn1ncc2nc[nH]c(=O)c21	-17.3	-3.5	3.3	-0.2	-24.3	6.3	4.4	-0.4	6.7
CN(C(=O)C(Cl)Cl)c1ccc(OC(=O)c2ccco2)cc1	-2.9	-1.7	12.7	0.3	-20.1	10.4	7.7	4.3	5.5
CN(C(=O)c1ccncc1)c1ccccc1	-21.3	-2.8	-3.1	4.9	7.8	2.7	-2.1	-1.1	2.2
COC(=O)C/C=C/[C@@H](C)[C@@H](/C=N/O[C@H](C)c1cn([C@@H]2COC[C@H]2O)nn1)NS(=O)(=O)c1ccc(C)cc1	-8.3	-0.9	-2.1	-0.5	-2.8	25.4	3.4	1.6	3.7
Cc1csc(SCCn2c(Br)nc3c2c(=O)[nH]c(=O)n3C)n1	-14.3	-15.5	2.0	0.8	-6.0	16.0	-3.8	-1.7	-13.9
COc1ccccc1C1/C(=C(/O)c2ccc(C)cc2)C(=O)C(=O)N1CCN1CCOCC1 (centres undefined)	-16.7	-7.3	1.3	11.0	-22.6	3.9	1.7	2.6	16.2
COc1ccc(N/C(=N\c2nc(C)cc(C)n2)NC(=O)C(C)C)cc1OC	2.4	0.6	-1.9	nt	-5.0	17.2	-1.3	0.9	8.8
COc1ccc(OCC(=O)N2CCN(C(=O)c3cccc4ccccc34)CC2)cc1	-18.9	-39.5	2.0	1.2	-51.6	27.2	2.5	3.0	-1.7
CC[C@H]1OC(=O)[C@H](C)[C@@H](O[C@H]2C[C@@](C)(OC)[C@@H](O)[C@H](C)O2)[C@H](C)[C@@H](O[C@@H]2O[C@H](C)C[C@H](N(C)C)[C@H]2O)[C@](C)(O)C[C@@H](C)C(=O)[C@H](C)[C@@H](O)[C@]1(C)O	-9.6	0.2	10.2	-0.3	-2.8	-48.4	5.4	-3.0	8.4
CCOC(=O)CSC1=C(C#N)C(c2ccc3c(c2)OCO3)CC(=O)N1 (centres undefined)	-4.2	2.2	3.1	0.7	11.4	12.3	0.7	-4.1	-14.2
Cc1c(N=Cc2c(O)n(C3CCCCC3)c(=O)[nH]c2=O)c(=O)n(-c2ccccc2)n1C	2.8	8.0	-2.9	2.7	-11.1	19.5	7.5	-0.3	23.6
O=S1(=O)C[C@@H](N2CCOCC2)[C@H](N2CCOCC2)C1	-9.8	-1.0	-1.6	-7.8	-2.8	17.3	2.3	0.2	-16.2
CCCCN1C(=O)C(O)=C(C(C)=O)C1c1ccc(OC)cc1OC (centres undefined)	-10.5	-5.9	-13.9	9.3	5.4	1.2	1.6	3.3	-22.0
CCn1c(SCC(=O)Nc2ccccc2C(=O)OC)nnc1-c1ccc(N)cc1	-10.7	1.4	7.2	-7.3	3.9	36.8	9.2	1.7	8.7
CCN(CC)CCCN1C(=O)C(=O)/C(=C(/O)c2ccc(C)cc2)C1c1ccccn1 (centres undefined)	-17.1	-1.9	-3.5	3.2	24.0	13.5	5.2	2.8	19.7
Nc1nc(Nc2ccccc2)nc2c1ncn2[C@@H]1O[C@H](CO)[C@@H](O)[C@H]1O	nt	-10.1	7.2	?	-16.8	19.3	nt	nt	10.8
O=C1CC(=O)CC(c2ccco2)C1	-9.3	nt	-0.6	nt	nt	nt	0.2	7.4	nt
CCOC(=O)c1[nH]c2cc(OC)c(OC)cc2c1NC(=O)C(C)N1CCN(Cc2ccccc2)CC1 (centres undefined)	-16.9	-0.6	-34.5	3.3	-2.7	-4.7	4.6	0.3	18.6
Cc1cc(/C(O)=C2\C(=O)C(=O)N(CCN(C)C)C2c2ccncc2)ccc1OCc1ccccc1 (centres undefined)	12.9	-3.3	2.3	8.2	-7.4	34.2	-9.1	11.4	5.4
NC(N)=N/N=C/c1c(Cl)cccc1Cl	-9.9&-12.5	-9.0&2.7	3.9&-4.4	-1.7&5.7	-9.0&0.9	13.3&20.7	5.4&5.9	4.4&0.3	-4.0&-14.7
Cc1ccc(N2C(=O)C3ON(c4ccccc4)C(c4ccncc4)C3C2=O)cc1 (centres undefined)	-20.3	-1.4	10.1	0.2	-6.2	41.5	2.6	1.7	-0.3
Cc1cccc(C)c1N1C(=O)C2ON(c3ccccc3)C(c3ccncc3)C2C1=O (centres undefined)	-22.6	4.2	4.8	-6.3	18.2	2.2	-5.6	-0.4	23.8
CCOC(=O)CCc1c(C)c(C#N)c2nc3ccccc3n2c1-n1ccnc1	-22.1	3.4	2.9	0.3	25.0	31.4	0.6	0.9	9.9
CCCN(CCC)S(=O)(=O)c1ccc(C(=O)O)cc1	-7.9	1.1	2.1	-3.1	6.4	21.7	-0.9	-1.7	17.7
Cc1cc(O)c(C(C)C)cc1NC(=O)Nc1cccc2ccccc12	6.8	-1.6	1.2	15.1	-4.5	0.9	-7.0	-1.7	1.6
c1ccc2c(NCC3CCCO3)nc(-c3ccncc3)nc2c1 (centres undefined)	-9.1	-9.1	2.5	-1.5	-10.3	10.1	-3.1	0.1	4.8
CCOc1cccc(-c2nn3c(-c4ccco4)nnc3s2)c1	-49.3	-5.1	-1.6	3.2	-4.0	38.0	2.1	-1.6	-57.6
CC1(C)Cc2c(sc3c2C2=NCCN2C=N3)CO1	-30.5	-3.4	1.9	4.8	10.1	5.4	-3.9	1.7	1.3
CCn1cc(C(=O)NCc2ccccn2)c(=O)c2cc(F)c(N3CCN(C)CC3)cc21	nt	-1.6	-35.5	nt	-2.7	8.0	nt	nt	-0.8
CC(=O)Nc1c(C)cc(OCC(=O)O)cc1C	1.4	-9.1	nt	8.9	-6.5	16.0	-2.3	3.5	2.1
COc1cccc(OC)c1C(=O)Nc1nc2ccc(S(C)(=O)=O)cc2s1	-25.7	-3.7	-3.0	-0.8	-11.2	12.3	2.1	1.5	13.4
CC1CC(C(F)(F)F)n2ncnc2N1 (centres undefined)	-27.7	-6.3	8.2	1.4	-11.2	14.6	0.6	3.4	-3.9
C[N+](C)(C)CCCCCC[N+](C)(C)C	nt	-0.1	-1.8	0.6	0.0	7.9	nt	nt	2.0
CCOc1ccccc1/C=C(/C#N)C(N)=O	-21.1	-5.3	nt	-4.9	-26.6	19.1	-0.6	0.5	6.8
O=C(c1ccc(=O)oc1)N1CCN(c2ccc(F)cc2)CC1	nt	-2.9	0.4	2.2	2.2	16.3	nt	nt	9.7
CC(C)c1nc2sc3c(c2c(=O)o1)CCCC3	-14.9	-1.6	13.2	-4.5	19.6	3.4	-2.3	-4.9	0.4
COc1ccc(O[C@H]2C=C[C@@H](c3ccccc3)O[C@@H]2CO/N=C(\C)CCN2CCc3nc(-c4ccccc4)c(-c4ccccc4)cc3C2)cc1	-9.8	9.6	8.1	-1.5	23.8	17.6	-0.6	5.6	-22.6
CCN(CC)CCCn1c(C)cc2c(c1=O)C(c1ccccc1)C(C#N)=C(N)O2 (centres undefined)	-0.6	-2.9	4.4	9.4	-1.8	21.0	4.6	-1.6	-9.3
CCOC(=O)c1[nH]c2ccc(F)cc2c1N=C(C)N(CC)CC	-9.8	-3.3	-0.7	2.2	-5.3	11.8	0.9	-1.8	11.1
CCOC(=O)c1c(SC)nc(SC)c2c1CCC2	-20.7	-11.4	-0.7	5.8	-11.0	9.6	-1.6	-0.3	28.4
CN1CCc2c(c3c(n2C)CCN(C)[C@@H]3c2cccnc2)[C@H]1c1cccnc1	-21.0&4.5	-0.6&1.3	2.1&-3.9	-12.2&1.5	21.1&6.4	-5.1&10.4	-5.7&3.3	0.6&-1.0	2.0&5.3
O=C1C=C(NCCNc2c(F)c(F)c(CO)c(F)c2F)CCC1	-23.7	3.5	1.0	13.3	-4.6	-2.8	2.0	3.5	2.7
CCCC(=O)Nc1nn(CCC)c2nc3ccccc3cc12	6.2	-2.4	0.3	-1.2	3.6	15.6	1.6	4.5	3.9
C[N+]1(C)CCCC(OC(=O)C(O)(c2ccccc2)c2ccccc2)C1 (centres undefined)	nt	-2.8	-12.8	18.7	8.5	8.7	nt	nt	4.9

# Not all compounds are listed, so the mix of outcomes need not match the whole.
